Compound activity: PubChem, Broad Institute
YB-1 expr inh: YB-1 expression inhibition | hit rate 0.37% among 30,000 | U2OS, qRT-PCR YB-1 vs CDIP delta delta Cp, 16 h; hits give high values; zero = DMSO, each unit about twofold | delta delta Cp (YB-1 minus CDIP) (concentration not given with the values) | AID 434959;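 active = delta delta Cp rounded down to an integer at or above 3, about 3 SD of DMSO wells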;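 also: higher means less YB-1 transcript or more CDIP transcript relative to DMSO; stock transfer was 100 nL into about 100 µL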
MITF inh: inhibitors of MITF; hit rate 0.28% among 37,000; inhibition, % (test concentration not listed); TRPM1 promoter luciferase, luminescence, 24 h;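 active = most replicates at 85% or more, or half of them and the mean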;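 also: human melanocyte line stably carrying TRPM1 promoter luciferase reporter; 0% = vehicle wells and 100% = a positive control; the first replicate is given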
PD-1 reverse act: activators reversing PD-1 mediated T-cell inhibition; primary human CD4 T cells, PD-L1 beads, CellTiter-Glo 96 h; activation, % (concentration not given with the values); 29,000 tested, under 10 active; AID 2316;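 active = replicate mean of 50% or more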;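 also: 0% = median vehicle wells and 100% = positive control; 100 nL library stock added to about 50 µL; numbers are from one replicate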
Shh pathway inh: blocks Sonic Hedgehog signaling. Shh-LIGHT2 Gli-luciferase reporter, 30 h. inhibition, % (no concentration beside the values). hit rate 2.1% among 22,000. AID 2313;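 active = replicate mean of 65% or more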;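 also: pathway switched on by Shh-conditioned medium diluted 1 in 25 in low serum; 100 nL library stock added to about 40 µL; 0% = median of neutral wells and 100% = positive control level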
Active calls of the source: *; . = not tested or not shown. An excerpt, so the mix of outcomes need not match the whole.

nr	Molecule	PD-1 reverse act	YB-1 expr inh	Shh pathway inh	MITF inh
1	Cc1cc(C(=O)Nc2cccc3c2O[C@@H](CN(C)S(=O)(=O)c2cccs2)[C@@H](C)CN([C@H](C)CO)C3=O)n(C)n1	0.3	-0.58	.	-19
2	COc1ccc2oc3ccccc3c(=O)c2c1	-0.8	-0.37	-221	-15
3	C[C@H]1CN([C@@H](C)CO)C(=O)c2cccc(NC(=O)Nc3ccccc3)c2O[C@@H]1CN(C)S(=O)(=O)c1cccs1	1.4	-0.19	12	-4
4	COc1ccc(S(=O)(=O)N(C)C[C@@H]2Oc3ccc(NC(=O)Nc4cccc5ccccc45)cc3CC(=O)N([C@H](C)CO)C[C@@H]2C)cc1	1.5	0.41	16	18
5	C[C@H](CO)N1C[C@H](C)[C@@H](CN(C)C(=O)Nc2ccc3c(c2)OCO3)Oc2c(NC(=O)Nc3ccccc3)cccc2C1=O	0.4	-0.23	-10	-8
6	C[C@H]1CN([C@@H](C)CO)C(=O)c2cc(NS(C)(=O)=O)ccc2O[C@H]1CN(C)C(=O)Nc1ccc(F)cc1	.	-0.19	.	3
7	CCOc1ccc2ccccc2c1C(=O)N[C@@H]1C(=O)N2[C@@H]1SC(C)(C)[C@@H]2C(=O)O	1.2	0.092	-2	2
8	COc1ccc(NC(=O)CNC(=O)c2ccc(C(C)(C)C)cc2)cc1	-0.9	.	.	-14
9	N#C/C(=C\c1ccc(Cl)cc1)c1ccccc1	0.1	0.021	-85	-19
10	COc1ccc(CN(C)C[C@H]2Oc3c(NC(=O)c4nc5ccccc5s4)cccc3C(=O)N([C@@H](C)CO)C[C@@H]2C)cc1	.	0.13	32	33
11	CC(C)NC(=O)Nc1ccc2c(c1)C(=O)N([C@H](C)CO)C[C@H](C)[C@@H](CN(C)Cc1ccccc1)O2	1.7	-0.21	.	7
12	COc1ccc(S(=O)(=O)Nc2ccc3c(c2)C(=O)N([C@@H](C)CO)C[C@H](C)[C@H](CN(C)C(=O)Nc2c(C)noc2C)O3)cc1	2.2	-0.0033	.	-6
13	C[C@H]1CN([C@@H](C)CO)C(=O)c2cc(NC(=O)Nc3ccc(F)cc3)ccc2O[C@H]1CN(C)C(=O)Nc1cccc2ccccc12	-0.9	-0.34	-10	-8
14	CSc1nc2ccc(S(=O)(=O)NCCOc3ccc(Cl)cc3)cc2s1	0.8	.	.	-8
15	COc1ccc(S(=O)(=O)N(C)C[C@H]2Oc3ccc(NC(=O)Cc4cn(C)c5ccccc45)cc3C(=O)N([C@@H](C)CO)C[C@@H]2C)cc1	-1.9	-0.48	10	38
16	C[C@@H]1CN([C@@H](C)CO)C(=O)c2cc(NC(=O)CCC(F)(F)F)ccc2O[C@H]1CN(C)C(=O)Nc1ccccc1	0.3	-0.073	6	-9
17	COc1ccc(NC(=O)N(C)C[C@@H]2OCCCC[C@@H](C)Oc3ccc(NC(=O)Nc4c(C)noc4C)cc3C(=O)N([C@H](C)CO)C[C@@H]2C)cc1	0.3	-0.52	27	4
18	Cc1noc(C)c1NC(=O)N(C)C[C@H]1Oc2ccc(NC(=O)CCC(F)(F)F)cc2CC(=O)N([C@@H](C)CO)C[C@H]1C	1.5	-0.043	-14	3
19	C[C@@H]1CN([C@H](C)CO)C(=O)Cc2cc(NS(=O)(=O)c3ccc(F)cc3)ccc2O[C@H]1CN(C)Cc1ccncc1	.	0.14	-12	-7
20	C[C@H](CO)N1C[C@H](C)[C@H](CN(C)S(=O)(=O)c2cn(C)cn2)Oc2c(NC(=O)Nc3ccccc3)cccc2C1=O	0.0	0.11	-29	9
21	C[C@H]1CN([C@@H](C)CO)C(=O)c2cc(NS(C)(=O)=O)ccc2O[C@@H]1CN(C)Cc1ccc(Oc2ccccc2)cc1	-1.2	-0.26	3	11
22	C[C@@H]1CN([C@@H](C)CO)C(=O)c2cccc(NC(=O)Nc3cccc4ccccc34)c2O[C@H]1CN(C)C(=O)Nc1ccccc1	-1.8	-0.067	17	8
23	C[C@@H]1CN([C@@H](C)CO)C(=O)Cc2cc(NS(C)(=O)=O)ccc2O[C@@H]1CN(C)C(=O)Nc1ccc(F)cc1	0.9	0.27	.	-1
24	C[C@H](CO)N1C[C@H](C)[C@@H](CN(C)C(=O)Nc2ccccc2)Oc2ccc(NS(=O)(=O)c3ccccc3)cc2C1=O	.	-0.19	-14	-3

Excerpt: entries 17 to 20
nr	Molecule	PD-1 reverse act	YB-1 expr inh	Shh pathway inh	MITF inh
17	COc1ccc(NC(=O)N(C)C[C@@H]2OCCCC[C@@H](C)Oc3ccc(NC(=O)Nc4c(C)noc4C)cc3C(=O)N([C@H](C)CO)C[C@@H]2C)cc1	0.3	-0.52	27	4
18	Cc1noc(C)c1NC(=O)N(C)C[C@H]1Oc2ccc(NC(=O)CCC(F)(F)F)cc2CC(=O)N([C@@H](C)CO)C[C@H]1C	1.5	-0.043	-14	3
19	C[C@@H]1CN([C@H](C)CO)C(=O)Cc2cc(NS(=O)(=O)c3ccc(F)cc3)ccc2O[C@H]1CN(C)Cc1ccncc1	.	0.14	-12	-7
20	C[C@H](CO)N1C[C@H](C)[C@H](CN(C)S(=O)(=O)c2cn(C)cn2)Oc2c(NC(=O)Nc3ccccc3)cccc2C1=O	0.0	0.11	-29	9

Following part:
nr	Molecule	PD-1 reverse act	YB-1 expr inh	Shh pathway inh	MITF inh
25	C[C@H](CO)N1C[C@H](C)[C@H](CN(C)Cc2ccc(Cl)c(Cl)c2)Oc2ccc(NC(=O)Cc3cn(C)c4ccccc34)cc2CC1=O	0.0	-0.022	13	36
26	CCOC(=O)c1nnn2c1nc(N1CCN(c3ccccc3)CC1)c1ccccc12	-0.3	-0.12	38	-16
27	COc1ccc(C2CC(=O)c3ccc(OC)cc3O2)cc1 (configuration not stated)	.	-0.027	-45	-95
28	C[C@H]1CN([C@@H](C)CO)C(=O)c2cccc(NS(C)(=O)=O)c2O[C@H]1CN(C)Cc1ccc2c(c1)OCO2	4.5	0.21	30	-14
29	CCOC(=O)CNc1nc2ccccc2n2cnnc12	2.3	.	.	9
30	C=C(CO)C(=O)O[C@H]1C[C@@]2(C)OC(=O)/C(=C/C)[C@@]23CC[C@@](C)(O)CC(=O)[C@@]1(C(=C)C(=O)OC)O3	.	-0.14	8	.
31	Cc1noc(C)c1S(=O)(=O)N(C)C[C@@H]1Oc2c(NS(=O)(=O)c3cn(C)cn3)cccc2C(=O)N([C@H](C)CO)C[C@H]1C	.	-0.29	-17	3
32	O=C(c1cccs1)n1nc(-c2ccccc2)nc1NCc1ccco1	0.1	.	.	-69
33	Cc1ccc(N(CC(=O)Nc2cc(Cl)ccc2C)S(C)(=O)=O)c(C)c1	1.1	.	.	-1
34	C[C@@H]1CN([C@H](C)CO)C(=O)Cc2cc(NC(=O)C3CC3)ccc2O[C@H]1CN(C)Cc1ccncc1	0.4	-0.26	-32	-3
35	COc1ccc(COCC(O)CS(=O)(=O)Cc2ccc(C)cc2)cc1 (configuration not stated)	1.1	-0.085	-22	3
36	C[C@@H]1CCCCO[C@@H](CN(C)S(=O)(=O)c2ccc(Cl)cc2)[C@@H](C)CN([C@H](C)CO)C(=O)c2cc(NC(=O)Nc3ccc(F)cc3)ccc2O1	-0.3	-0.13	13	18
37	C[C@H](CO)N1C[C@H](C)[C@@H](CN(C)C(=O)NC2CCCCC2)Oc2ccc(NC(=O)Cc3ccccc3)cc2C1=O	-0.6	-0.21	-19	0
38	COc1ccc(-c2cc(C(=O)OCc3ccco3)c3ccccc3n2)cc1OC	-9.7	.	.	-29
39	Cc1noc(C)c1NC(=O)Nc1ccc2c(c1)C(=O)N([C@@H](C)CO)C[C@@H](C)[C@H](CN(C)Cc1ccc(-c3ccccc3)cc1)O2	-0.6	0.18	.	6
40	C[C@@H]1CN([C@@H](C)CO)C(=O)c2cc(N(C)C)ccc2O[C@H]1CN(C)Cc1ccc(C(F)(F)F)cc1	.	-0.1	-15	2
41	C[C@@H]1CN([C@H](C)CO)C(=O)c2cc(NS(=O)(=O)c3ccc(Cl)cc3)ccc2O[C@@H]1CN(C)Cc1ccc(C(=O)Nc2ccccc2N)cc1	-1.2	-0.013	.	15
42	C[C@@H]1CN([C@H](C)CO)C(=O)Cc2cc(NC(=O)Nc3ccccc3)ccc2O[C@@H]1CN(C)C(=O)Nc1ccccc1	-1.6	-0.24	2	-19
43	C[C@@H]1CN([C@@H](C)CO)C(=O)Cc2cc(NC(=O)Nc3ccccc3)ccc2O[C@@H]1CN(C)Cc1ccccc1	1.2	-0.039	-5	1
44	COc1ccc(S(=O)(=O)NCCc2ccc(OC)c(OC)c2)cc1Cl	0.9	.	.	-4
45	COc1ccc(NC(=O)Nc2cccc3c2O[C@@H](CN(C)C(=O)Nc2cccc4ccccc24)[C@H](C)CN([C@@H](C)CO)C3=O)cc1	-0.3	-0.024	-49	1
46	C[C@@H]1CN([C@H](C)CO)C(=O)Cc2cc(NS(=O)(=O)c3ccc(F)cc3)ccc2O[C@H]1CN(C)S(=O)(=O)c1cn(C)cn1	.	0.14	-9	2
47	C=C1C(=O)O[C@H]2C1[C@H](OC(=O)/C(C)=C/CO)C/C(C)=C\CC[C@@]1(CO)OC21 (some centres not stated)	-15	0.098	4	26
48	COc1ccc(NC(=O)Nc2cccc3c2O[C@@H](CN(C)Cc2ccc(C(F)(F)F)cc2)[C@H](C)CN([C@@H](C)CO)C3=O)cc1	-4.4	-0.035	20	37
49	COc1ccccc1NC(=O)CSc1nc2ccccc2c(=O)n1-c1ccc(C)cc1	0.3	.	.	-6
50	COc1ccc(NC(=O)Nc2ccc3c(c2)CC(=O)N([C@@H](C)CO)C[C@H](C)[C@H](CN(C)Cc2ccc(-c4ccccc4)cc2)O3)cc1	-2.0	0.29	22	24
51	CC(C)Cc1cc(-c2cccc(Br)c2)c(C#N)c(N)n1	-0.8	-0.03	26	6
52	CC(C)C(NC=O)C(=O)N1CCC2Oc3ccc(cc3)/C=C\NC(=O)C(Cc3ccccc3)NC(=O)C21 (configuration not stated)	.	0.048	-9	.
53	Cc1ccc(S(=O)(=O)N(C)C[C@@H]2Oc3c(NC(=O)Nc4ccc(C(F)(F)F)cc4)cccc3C(=O)N([C@@H](C)CO)C[C@H]2C)cc1	0.5	0.44	-35	8
54	O=C(COc1ccc(F)cc1)Nc1ncccn1	1.5	.	.	-28
55	Cn1c(SCC(=O)N2c3ccccc3Sc3ccccc32)nnc1-c1ccccc1Cl	1.4	.	.	16
56	Cc1cc(Cl)ccc1NC(=O)CN(c1cccc(Cl)c1)S(C)(=O)=O	-1.2	.	.	4
57	Cc1ccc(S(=O)(=O)N(C)C[C@H]2Oc3ccc(NC(=O)NC4CCCCC4)cc3CC(=O)N([C@@H](C)CO)C[C@H]2C)cc1	-2.6	0.17	9	-7
58	C=CCn1c(SCc2ccccc2C#N)nnc1-c1ccccc1O	-1.5	.	.	14
59	C[C@@H]1CN([C@H](C)CO)C(=O)c2cc(NS(=O)(=O)c3cccs3)ccc2O[C@@H]1CN(C)S(=O)(=O)c1ccc(F)cc1	-0.7	0.15	.	-4
60	COc1cc(CO)ccc1OCc1cccc(C(=O)O)c1	2.2	.	.	93*
61	C[C@H](CO)N1C[C@H](C)[C@H](CN(C)C(=O)Nc2ccccc2)Oc2ccc(NC(=O)Nc3ccccc3)cc2C1=O	.	0.028	6	-8
62	Nc1cc(N)nc(SCc2cccnc2)n1	2.4	.	.	-31
63	CCNC(=O)N1CCN(CCCC(c2ccc(F)cc2)c2ccc(F)cc2)CC1	0.6	-0.11	19	21
64	C[C@H]1CN([C@@H](C)CO)C(=O)c2cc(NC(=O)Cc3cn(C)c4ccccc34)ccc2O[C@H]1CN(C)C	0.3	-0.042	-39	3
65	C[C@H](CO)N1C[C@H](C)[C@H](CN(C)CC2CC2)Oc2c(NS(=O)(=O)c3ccc(Cl)cc3)cccc2C1=O	1.1	0.28	43	-9
66	C[C@@H]1CN([C@H](C)CO)C(=O)Cc2cc(NS(=O)(=O)c3cccs3)ccc2O[C@@H]1CN(C)Cc1ccc(Oc2ccccc2)cc1	.	-0.0057	34	2
67	Cc1ccc(S(=O)(=O)N(C)C[C@@H]2Oc3ccc(N(C)C)cc3C(=O)N([C@@H](C)CO)C[C@@H]2C)cc1	-0.1	0.21	20	-9
68	C[C@H](CO)N1C[C@H](C)[C@H](CN(C)C(=O)NC2CCCCC2)Oc2ccc(NS(=O)(=O)c3ccc(Cl)cc3)cc2CC1=O	0.3	-0.053	-9	3
69	O=[N+]([O-])c1ncn(Cc2ccccn2)n1	1.5	.	.	-4
70	C[C@H]1CN([C@@H](C)CO)C(=O)c2cc(NC(=O)Cc3cn(C)c4ccccc34)ccc2O[C@H]1CN(C)Cc1ccc2c(c1)OCO2	-0.1	0.24	.	4
71	COc1ccc(NC(=O)Nc2ccc3c(c2)CC(=O)N([C@@H](C)CO)C[C@H](C)[C@@H](CN(C)C)O3)cc1	.	0.13	-14	13
72	C[C@H]1CN([C@@H](C)CO)C(=O)c2cc(NS(=O)(=O)c3ccc(F)cc3)ccc2O[C@H]1CN(C)Cc1ccc(C(=O)O)cc1	4.1	-0.13	.	1
73	C[C@@H]1CN([C@H](C)CO)C(=O)c2cccc(NC(=O)NC3CCCCC3)c2O[C@H]1CN(C)C	0.3	0.87	-25	10
74	COc1ccc(S(=O)(=O)Nc2cccc3c2O[C@H](CN(C)C(=O)Nc2c(C)noc2C)[C@H](C)CN([C@H](C)CO)C3=O)cc1	2.1	-0.092	-11	-7
